# Screening results (PubChem)
# H5N1 CPE – MDCK cell protection from H5N1 avian flu | cytopathic effect, luminescence, 72 h; hits give high values; no value below 0 was filed and about half of the inactive calls have no number; reference of the scale not given here | inhibition, % at 50 µM | 96,000 compounds, 0.07% hits; in the data active means inhibition above about 25%
# Starred values were filed as active, the others as inactive; i = inactive.
SMILES,H5N1 CPE
CNC(=O)COC(=O)c1cc(=O)[nH]c2ccccc12,0.1
CC(C)Oc1ccc(/C(O)=C2/C(=O)C(=O)N(CCN3CCOCC3)C2c2ccccc2)cc1 (stereo not drawn),i
COC(=O)C1=C(C)NC(=O)NC1c1ccsc1 (stereo not drawn),i
CCn1nc(NC(=O)c2cccnc2)c2cc3cccc(C)c3nc21,0.2
Cc1occc1C(=O)n1nnc2ccccc21,0.3
COC(=O)c1ccccc1NC(=O)c1nc2nc(C)cc(C)n2n1,0.7
COc1ccc(-c2nnn(CC(=O)N(CCO)C(C(=O)NC3CCCC3)c3ccc(F)cc3)n2)cc1 (stereo not drawn),i
CC(Nc1n[nH]c(=S)[nH]c1=O)C(=O)OCc1ccccc1 (stereo not drawn),i
CCOC(=O)N1CCN(S(=O)(=O)c2ccc3c(c2)CCN3C(=O)C2CCC2)CC1,5.2
COc1ccc(NC(=O)c2[nH]c(C)c(C(C)=O)c2C)cc1Cl,i
COCCN(CC(=O)NCc1ccccc1)C(=O)CCC(=O)Nc1ccccn1,i
Cc1ccc(C(=O)Cn2c(C(=O)/C=C/c3ccccc3)nc3ccccc32)cc1,i
CC(C)CC(=O)Nc1nnc(-c2ccco2)s1,i
Cn1c(=O)c2c(nc(NCc3ccccc3)n2CC(=O)NCc2ccccc2)n(C)c1=O,i
Cc1ccccc1NCC(=O)N/N=C/C(Br)=C/c1ccccc1,i
O=C(OCC#CCSc1nc2ccccc2s1)c1ccco1,i
OCCN1CCN(CC(O)COc2ccc3c(c2)OCO3)CC1 (stereo not drawn),i
c1ccc(Oc2cc(-c3ccccc3)ncn2)cc1,i
N#CCSc1nnc(-c2ccccc2)c(-c2ccccc2)n1,23
Nc1c(Nc2ccccc2)c2ccccc2oc1=O,0.3
CCCCc1c(C)c2ccc(OCC(C)=O)cc2oc1=O,i
Cc1cc(NC(=O)COC(=O)C(Nc2ccc(C(F)(F)F)cc2Cl)C(C)C)no1 (stereo not drawn),1.2
COC(=O)c1cncc(O)c1,0.3
Cc1cc2c3c(c1)C(C)(c1ccccc1)CC(C)(C)N3C(=O)C21C(C#N)=C(N)OC2=C1C(=O)CC(C)(C)C2 (stereo not drawn),i
COc1cccc(C(=O)OCC(=O)Nc2ccccc2N2CCOCC2)c1,0.1
O=C(NCc1ccccc1)c1ccc(-c2ccccc2F)o1,0.1
COc1nc(C)nc2c1sc(=S)n2C,i
O=C(NCCCn1ccnc1)c1cc2c(s1)CCCCC2,i
Cc1ccc(C(=O)N2CCCC2)c(F)c1F,1.1
O=C1NC(Cc2c[nH]c3ccccc23)C(=O)N1c1ccc(F)cc1 (stereo not drawn),i
COc1cccc(Nc2ncnc3nc[nH]c23)c1,5.2
COC(=O)c1ccc(CSc2ncn[nH]2)o1,0.5
O=C(Nc1ccc2sc3ccccc3c(=O)c2c1)c1ccccc1Cl,0.3
Fc1cccc(-c2cc3nc4c(c(N5CCC6(CC5)OCCO6)n3n2)CCCC4)c1,3.6
Cc1ccc(C(=O)Nc2c(-c3cccs3)nc3cc(C)ccn23)cc1,0.5
Cc1cc(=O)oc2cc(OCC(O)CN3CCN(c4ccccc4)CC3)ccc12 (stereo not drawn),1.1
CN1C(=S)SC(/[N+]([O-])=C\c2cccs2)C1(C)C (stereo not drawn),i
COc1ccc(CNC(=O)C2COc3ccccc3O2)cc1 (stereo not drawn),0.3
Cc1ccc(C(=O)Oc2cccc(NC(=O)c3ccco3)c2)cc1S(=O)(=O)N1CCC(C)CC1,i
COC(=O)CN(C)C1CC(=O)N(c2ccc(Cl)cc2)C1=O (stereo not drawn),0.7
CCn1c(COc2ccccc2C)nnc1SCC(=O)CC(=O)Nc1ccccc1OC,i
CC(=O)N1CCN(CCN=CC2=C(O)CC(c3ccco3)CC2=O)CC1 (stereo not drawn),i
O=C(Cc1ccccc1)NCC(=O)N1CCCCCC1,i
CCOC(=O)c1cccc(NC(=O)CS(=O)(=O)Cc2nc(-c3cccc(OC)c3)oc2C)c1,0.2
CCC(C)NC(=O)CSc1nnc(-c2ccncc2)n1-c1ccc(OC)cc1 (stereo not drawn),i

# Filtered by structure: those above containing four or more nitrogen atoms.
SMILES,H5N1 CPE
CCn1nc(NC(=O)c2cccnc2)c2cc3cccc(C)c3nc21,0.2
COC(=O)c1ccccc1NC(=O)c1nc2nc(C)cc(C)n2n1,0.7
COc1ccc(-c2nnn(CC(=O)N(CCO)C(C(=O)NC3CCCC3)c3ccc(F)cc3)n2)cc1 (stereo not drawn),i
CC(Nc1n[nH]c(=S)[nH]c1=O)C(=O)OCc1ccccc1 (stereo not drawn),i
COCCN(CC(=O)NCc1ccccc1)C(=O)CCC(=O)Nc1ccccn1,i
Cn1c(=O)c2c(nc(NCc3ccccc3)n2CC(=O)NCc2ccccc2)n(C)c1=O,i
N#CCSc1nnc(-c2ccccc2)c(-c2ccccc2)n1,23
COc1cccc(Nc2ncnc3nc[nH]c23)c1,5.2
Fc1cccc(-c2cc3nc4c(c(N5CCC6(CC5)OCCO6)n3n2)CCCC4)c1,3.6
CCn1c(COc2ccccc2C)nnc1SCC(=O)CC(=O)Nc1ccccc1OC,i
CCC(C)NC(=O)CSc1nnc(-c2ccncc2)n1-c1ccc(OC)cc1 (stereo not drawn),i

# Returning to the listing; the 2 compounds before the break are reprinted first.
SMILES,H5N1 CPE
CCOC(=O)c1cccc(NC(=O)CS(=O)(=O)Cc2nc(-c3cccc(OC)c3)oc2C)c1,0.2
CCC(C)NC(=O)CSc1nnc(-c2ccncc2)n1-c1ccc(OC)cc1 (stereo not drawn),i
O=C(Cc1ccc(-n2cccc2)cc1)N1CCc2ccccc21,0.2
CCCCC(=O)N/N=C(\C)CC(=O)Nc1cc(Cl)ccc1OC,0.2
C/C(=N\NC(=S)Nc1cccc(C)c1)c1ccccc1,i
CN(c1ccc(C(=O)NCCSC(C)(C)C)cc1)S(C)(=O)=O,0.0
COc1cccc(C(=O)NNC(=O)c2ccccc2Br)c1,1.9
Cc1ccc(CC(=O)N2CCN(c3ccccn3)CC2)cc1,i
COc1cccc(NC(=O)N(CCCN2CCOCC2)C(C)c2cc3cccc(OC)c3o2)c1 (stereo not drawn),i
Cc1noc(C)c1COc1ccc(C(=O)OCc2nnc(-c3ccc(Cl)cc3)o2)cc1,0.2
COc1ccc(CCNC(=O)CSc2nnnn2-c2ccccc2OC)cc1OC,1.8
COC(=O)c1[nH]c(C)c(/C(O)=C2\C(=O)C(=O)N(CCCN3CCOCC3)C2c2ccccn2)c1C (stereo not drawn),i
Cc1cc(Cl)ccc1OCC(=O)O,i
CCNc1nc(NC(C)C)nc(N(C#N)CCOc2ccccc2)n1,0.2
COC(=O)C1=CN(C)C=C(C(=O)OC)C1c1ccsc1,i
Cc1ccc(C(=O)NC(=S)Nc2ccccc2C(F)(F)F)cc1,i
N#CC(c1ccc(Cl)cc1)(c1ncc(C(F)(F)F)cc1Cl)N1CCOCC1 (stereo not drawn),3.0
COC(=O)C1C(O)=C(C=NCC(C)N=CC2=C(O)C(C(=O)OC)C(C)(C)CC2=O)C(=O)CC1(C)C (stereo not drawn),i
COc1ccc(-n2nnnc2-c2cccnc2)cc1,i
O=C(Nc1nc(-c2ccc(S(=O)(=O)N3CCCC3)cc2)cs1)c1cccs1,4.8
CC1CCCC/C1=N\NS(=O)(=O)c1ccc(Br)cc1 (stereo not drawn),i
CC(CCc1ccccc1)NC(=O)c1cc2sccc2n1C (stereo not drawn),i
CC1(C)C(C(=O)NN2C(=O)c3ccccc3C2=O)C1(C)C,0.2
CCn1nc(-c2ccccc2)c2nc3ccccc3nc21,i
CCN(CC(=O)NCc1ccc(F)cc1)C(=O)C1CCN(C(=O)Nc2ccccc2)CC1,i
O=C(Nc1ccc(F)cc1)Nc1nnc(-c2ccncc2)s1,2.8
CCOC(=O)N1CCC(N2Cc3cccc(C(=O)NCc4ccccn4)c3C2=O)CC1,2.2
COc1ccc(CCC(C(O)C(F)(F)F)S(=O)c2ccccc2)cc1 (stereo not drawn),0.6
Cc1ccc(C2C(/C=C3/SC(=S)NC3=O)=C(c3cccs3)Oc3ccccc32)cc1 (stereo not drawn),i
COc1cc2[nH]c(=O)n(CCCCCC(=O)NCCc3c[nH]c4ccccc34)c(=O)c2cc1OC,i
N#Cc1c(N)nc2c3c(sc(=N)c2c1N)NC(=O)CC3c1c(F)cccc1Cl (stereo not drawn),2.0
COc1ccc2nc(NC(=O)C3COc4ccccc4O3)sc2c1 (stereo not drawn),i
COC(=O)C1CCN(C(=O)COC(=O)CC(NC(N)=O)c2ccc(Cl)cc2)CC1 (stereo not drawn),i
COCCn1c(C)cc(C(=O)COC(=O)C23CC4CC(CC(O)(C4)C2)C3)c1C,0.4
Clc1ccc(-c2nnc3c4ccccc4nc(N4CCOCC4)n23)cc1Cl,1.8
Cc1nnc(NC(=O)NCN2C(=O)C3C4C=CC(C4)C3C2=O)s1 (stereo not drawn),i
Nc1cc(=O)[nH]c(SCC(=O)Nc2cc(Cl)cc(Cl)c2)n1,i
Cc1ccc(-n2c(CNc3ccc(F)cc3)nnc2SCC(=O)NCc2ccco2)cc1,2.2
COc1ccccc1-c1nnc(SCC(=O)Nc2cc(C)on2)o1,2.2
Cn1c(=O)n(Cc2ccccc2F)c(=O)c2c1nc1n2CCCN1CCc1ccccc1,1.0
O=C1NC(=O)c2cc(NC(=O)C3CCCCC3)ccc21,i
Cc1ccccc1N(CC(=O)NCc1ccc2c(c1)OCO2)C(=O)CCC(=O)Nc1ccccn1,0.5
COc1ccc(N(CC(=O)NCc2cccnc2)S(=O)(=O)c2c(C)nn(C)c2C)cc1,i
CCOC(=O)N1CCC(N2C(=O)c3ccccc3C2Nc2ccccc2C)CC1 (stereo not drawn),i
Fc1ccc(NC(=S)N2CCCc3ccccc32)cc1,0.6
O=C1C(c2ccc(F)cc2)N(CC2COc3ccccc3O2)C(=O)CN1C1CCCCC1 (stereo not drawn),0.4
CCn1c2ccccc2c2cc(NC(=O)N3CCOCC3)ccc21,0.2
COCCn1c(SC(C)C(=O)Nc2ccc3c(c2)OCCO3)nc2ccccc2c1=O (stereo not drawn),0.2
COc1ccc(C(=O)NCCn2ccc3ccccc32)cc1OC,1.4
OCCN1CCN(c2nc(N3CCCCC3)nc(N3CCCCC3)n2)CC1,i
CCCn1nnc(NC(=O)COc2ccc(Cl)cc2)n1,0.4
CCOC(=O)c1c(NC(=O)Cn2nc([N+](=O)[O-])c(Br)c2C)sc2c1CCC(C)C2 (stereo not drawn),i
COC(=O)/C(=C\c1ccc([N+](=O)[O-])o1)NC(=O)c1ccccc1,i
OC(c1ccccc1)c1nccn1Cc1ccccc1 (stereo not drawn),1.5
COc1cc(C(=O)NC(=S)NCc2ccco2)cc(OC)c1OC,1.2
O=C(O)c1cccc(Cn2cc(Br)cn2)c1,i
Cc1ccc(NC2=Nc3ccccc3CS2)cc1,i
COc1ccc(C)cc1NC(=O)Nn1cnnc1,i
Cc1nc2c(Br)c3nc(C(F)(F)F)[nH]c3c(Br)c2[nH]1,0.7
CCn1ncc(Br)c1C(=O)Nc1nccs1,i
Cc1cc[n+](CC(=O)Nc2cc(C(F)(F)F)ccc2Cl)cc1,0.9
C=CCn1c(O)c(C(C)=NCCO)c(=O)[nH]c1=O,i

# (continued)
SMILES,H5N1 CPE
CCCn1c(=O)c2c(C(=O)OCC)cc(-c3ccco3)nc2n(CCC)c1=O,10
CC1Cc2ccccc2N1Cc1nc2cc(C(F)(F)F)ccc2c(=O)[nH]1 (stereo not drawn),i
O=S(Cc1cc(Oc2ccccc2)nc(-c2ccccc2)n1)c1ccccc1 (stereo not drawn),3.7
CCOc1ccc(NS(=O)(=O)c2ccc(NS(=O)(=O)c3ccc(SC)cc3)cc2)cc1,0.3
CCOC(=O)C1CCN(C(=O)c2cn(C)c(=O)c3cc(OC)c(OC)cc23)CC1,i
CN1C(=O)NC(NC(=O)c2cccs2)(C(F)(F)F)C1=O (stereo not drawn),0.9
O=C1c2ccccc2C(=O)N1CCCOCc1c[nH]c(=O)[nH]c1=O,i
Cn1c(=Nc2ccccc2)sc2ccccc21,i
O=C1OCCC1Sc1nc2ccccc2n1Cc1ccccc1 (stereo not drawn),0.9
O=C(Nc1ccc2c(c1)OCCO2)C1CCN(S(=O)(=O)Cc2ccccc2)CC1,i
Cn1c(CNC(=O)c2ccc(Cl)c(Cl)c2)nnc1SCC(=O)Nc1sc2c(c1C#N)CCCC2,0.1
FCCCOc1ccc(-c2nccc(-c3ccc(F)cc3)n2)cc1,i
COc1ccc(S(=O)(=O)Nc2cccc(SC)c2)cc1OC,2.0
Cc1cc(SCC(=O)c2cccs2)nc2c(C)cccc12,i
COc1nc(OCC#N)nc(N(C)C)n1,i
CCN(CC)C(=O)C1CC(=O)N(c2ccc(F)c(Cl)c2)C1 (stereo not drawn),i
O=C(Nc1ccc2c(c1)OCO2)c1cnn2cccnc12,0.3
CS(=O)(=O)Nc1ccc(C(=O)NCCc2ccccc2)cc1,0.1
CCN(CC)c1ccc(CN2CCCCCC2)cc1,1.2
CC(C)(C)NC(=O)C1CCN(C(=O)c2ccc(-c3ccccc3)cc2)CC1,1.2
CC(Sc1nnc(C(F)(F)F)n1C)C(=O)NC(N)=O (stereo not drawn),i
CCOc1ccccc1NC(=O)CN1C(=O)COc2ccc(Cl)cc21,0.1
COc1cccc(C2CC(C(F)(F)F)n3ncc(C(=O)NC(C)(C)C)c3N2)c1 (stereo not drawn),i
Cn1c(=O)c2c(nc(CN3CCN(Cc4ccccc4)CC3)n2CCN2CCOCC2)n(C)c1=O,3.2
Cc1cc(C)c(NC(=O)C(C)Sc2nnc(-c3ccco3)n2-c2ccccc2)c(C)c1 (stereo not drawn),i
O=C(O)CCC(=O)Nc1ccc(C(=O)N2CCCCC2)cc1,0.7
CCC1Oc2ccccc2N(CC(=O)NCCCN2CCCCC2C)C1=O (stereo not drawn),i
N#Cc1c(N)nc(SCc2ccccc2)c(C#N)c1-c1ccco1,i
NC(=O)c1ccccc1NC(=O)Nc1cccc(Cl)c1,i
O=C(COc1ccccc1)Nn1cnc2ccccc21,0.3

# Four records drawn at random from the list so far:
SMILES,H5N1 CPE
Cc1cc(C)c(NC(=O)C(C)Sc2nnc(-c3ccco3)n2-c2ccccc2)c(C)c1 (stereo not drawn),i
CS(=O)(=O)Nc1ccc(C(=O)NCCc2ccccc2)cc1,0.1
COc1cccc(C2CC(C(F)(F)F)n3ncc(C(=O)NC(C)(C)C)c3N2)c1 (stereo not drawn),i
N#Cc1c(N)nc(SCc2ccccc2)c(C#N)c1-c1ccco1,i

# An excerpt. The share of hits here may be higher or lower than overall.
